# aGlu spleen mod – inhibits or activates alpha-glucosidase in human spleen homogenate | P10253 | human spleen homogenate, 4-MU-alpha-glucoside fluorescence | Potency, µM (series often up to 79.9 µM), for the others: at the highest dose activity change, negative = inhibition, hits mostly inhibitors | 240,000 tested, 0.006% active | AID 2112;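 note: 0% = enzyme with vehicle and -100% = no enzyme basal signal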
#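 AC50 values come from Hill-equation fits of concentration-response data, normalized to no-enzyme and full-activity controls. Enzyme source: 1 ug human spleen homogenate; 1 mM fluorogenic 4-MU glucoside, pH 5.0 citrate buffer, 37 C, 40 min.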
# GAA glycogen mod – GAA glycogen-cleavage inhibition or activation. P10253. recombinant GAA, glycogen substrate, Amplex Red glucose oxidase fluorescence. Potency, µM (top dose mostly 76.4 µM), inactives show at the highest dose activity change, negative = inhibition, most hits filed as inhibitors. 300,000 tested, 0.38% active. AID 2100;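 note: 0% = full enzyme reaction and -100% = no-enzyme basal signal; the screen sought inhibitors and activators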
#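 Recombinant human alpha-glucosidase (4 nM final) hydrolysed bovine liver glycogen (30 ug) for 40 min at 37 C in pH 5.0 citrate/phosphate with 0.01% Tween-20. Released glucose detected by glucose oxidase/Amplex Red, Ex 573/Em 610 nm. Compounds up to 77 uM; AC50 from Hill fits.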
# GAA inh – inhibitors of human lysosomal alpha-glucosidase. Potency, µM (titrated, usually from 76.9 µM), inactives show top-dose activity change, negative = inhibition, usual class: inhibitors. AID 1466. purified human GAA, 4-MU-alpha-glucoside fluorescence. 200,000 tested, 0.005% active;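 note: plate controls were uninhibited enzyme wells for no effect and no-enzyme background for full effect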
#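 Human alpha-glucosidase, 4 nM, pre-mixed with test compounds before 400 uM 4-methylumbelliferyl substrate; 20 min room temperature at pH 5.0. Fluorescence read after pH 10 stop; AC50 values from Hill-equation fits.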
# IMPase Li inh – IMPase inhibition in cells with lithium potentiation. CHO-M1 cells, IP1 TR-FRET (IP-One), carbachol + lithium. Potency, µM (titrated, usually from 59.4 µM), without a hit: at the highest dose activity, negative = IMPase inhibition, usual class: inhibitors. 210,000 tested, 0.35% active;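 note: IP1 builds up when IMPase is blocked and the TR-FRET signal falls; plate controls were basal vehicle for no effect and high inhibitor control for full effect; nearly all actives have a fitted effect of over 50% in size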
#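 CHO cells stably expressing M1 receptor (2000/well) were cultured 16–30 h, then exposed to compounds with a small lithium addition for 30 min at 37C. IP1 was measured by TR-FRET competition; AC50 from Hill fits.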
# HTT ATP protect – cytoprotection in Huntington HTT-Q103 PC12 cell model. PC12 HTT-Q103 induced, cytoprotection, ATP luminescence, 40 h. Potency, µM (doses to about 56.4 µM), without a hit: cytoprotection (ATP increase), most hits filed as activators. 230,000 tested, 0.14% active. AID 1471;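 note: % of control where 0% means no effect; nearly all actives have a fitted effect of over 45% in size; toxic huntingtin expression switched on by the ecdysone agonist tebufenozide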
#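 PC12 cells with ecdysone-inducible HTT exon 1 Q103-GFP, induced with 100 nM tebufenozide and co-treated with library compounds in a dose series (1536-well, 1500 cells/well). Cytoprotection read as ATP content by ATPlite luminescence.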
# HttQ103 aggreg – reduces HttQ103-GFP aggregates in PC12 cells; Potency, µM (series often up to 46.1 µM), without a hit: at the highest dose activity change, negative = inhibition, usual class: inhibitors; PC12 HttQ103-GFP aggregates, Acumen cytometry, 40 h; 220,000 tested, 1.1% active; AID 1688; note: % is set by controls: 0 for no effect and ±100 for the full control effect; nearly all actives have a fitted effect of over 60% in size
#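 Multiplexed with ATP-based cell death, this channel scores GFP aggregates in PC12 cells expressing inducible HTTex1-Q103-GFP. Induction used 100 nM tebufenozide; compounds were tested in concentration series.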
# Active calls of the source: *; ? = inconclusive; . = not tested or not shown; [ ] = dose if it differs, or a comment. Calls come from the whole dose curve; as a rule, active = well fitted curve in the direction sought with a large enough effect; inconclusive = small, poorly fitted or top-dose-only effect, or another doubt; inactive = no such curve, though single readings can be large; an effect the other way counts as inactive or inconclusive. Potency is the fitted concentration of half-maximal effect. Some of the compounds tested (hit frequency here may not be typical).
SMILES,aGlu spleen mod,GAA glycogen mod,GAA inh,IMPase Li inh,HTT ATP protect,HttQ103 aggreg
CC1=C(C(=O)Nc2ccccc2)C(c2cccs2)n2nnnc2N1 (stereo not given),1.9%,2.6%,-3.1%,24.6%[38.3 µM],-14.5%[10 µM],-0.8%
CCOC(=O)c1cc(C#N)c(N2CCN(C)CC2)nc1-c1ccccc1,5.8%,-4.5%,2.1%,12.6%,-15.5%,-4.0%
CCC(=O)Nc1nnc(SCc2ccc(F)cc2)s1,-4.0%,0.0%,0.4%,1.0%,4.1%[10 µM],24.6%
COC(=O)Oc1ccc(/C=C/C(=O)OC(C)C)cc1OC(=O)OC,5.2%,-4.2%,-13.4%,-2.5%,-18.1%[10 µM],?
O=C(Nc1ccccc1Cl)NC1(C(=O)N2CCCCC2)CCCCC1,-9.9%,5.8%,1.9%,8.3%,2.9%[10 µM],-2.6%
O=C(Nc1ccc(O)c(-c2nc3ccccc3o2)c1)C1(c2ccc(Br)cc2)CCCC1,-2.1%,-5.1%,-24.7%,-6.4%,40.9%[10 µM],-21.5%
Nc1nnc(SCC(=O)c2ccc3ccccc3c2)s1,4.8%,?,2.2%,29.9%[38.3 µM],-2.6%[10 µM],-9.8%[9.22 µM]
CC(C)C(C(=O)N1CCOCC1)N1C(=O)c2ccccc2C1=O (stereo not given),-1.0%,-0.9%,-5.8%,25.3%[38.3 µM],2.3%[10 µM],3.4%
CCOc1cc(Br)c(CC(=O)O)cc1OCC,13.2%,-0.7%,.,.,10.5%[10 µM],19.9%[9.22 µM]
CC1Cc2nc(SCC(=O)Nc3ccc(F)cc3)n(C)c(=O)c2S1 (stereo not given),-4.6%,0.6%,-9.4%,-1.1%[38.3 µM],-8.6%,-17.4%
COc1cc2c(cc1OC)CN(C(=O)CCCOc1ccc(Cl)cc1Cl)CC2,-1.6%,-12.2%,-14.5%,10.4%[38.3 µM],-1.1%,?
CCCCNS(=O)(=O)c1ccc2nc(-c3cccnc3)cc(C(=O)NC(C)CC)c2c1 (stereo not given),0.4%,-1.8%,1.5%[15.4 µM],-20.8%,.,10.1%
CCOc1ccc(C(=O)Nc2nncs2)cc1OCC,0.5%,1.8%,5.5%,1.7%,22.4%[10 µM],-26.3%
Cc1cccc(N2CSC3=C(C#N)C(c4ccc(C)o4)CC(=O)N3C2)c1 (stereo not given),-3.7%,-26.3%,5.7%,-14.3%[38.3 µM],-11.6%[0.074 µM],46.2%
Cc1cc(C)c(S(=O)(=O)Nc2cccc(C(F)(F)F)c2)c(C)c1,6.7%,.,.,12.0%,18.3%,.
O=C(CN1CCOCC1)N/N=C/c1ccc(-c2ccc(C(=O)O)cc2)o1,-22.2%,8.7%,.,.,10.1%[10 µM],-4.5%[9.22 µM]
CCCC(=O)Nc1ccc2nc(SCC(=O)Nc3nccs3)sc2c1,-0.3%,-1.2%,-0.1%,-2.2%,12.9%[10 µM],-9.7%
CC1CCN(C(=O)C2CCCCN2S(=O)(=O)c2cccc([N+](=O)[O-])c2)CC1 (stereo not given),-2.8%,7.3%,6.4%,3.3%,-43.2%[inhibitor],16.9%
Cc1ccc(CNC(=O)C2CN(S(C)(=O)=O)c3cc(Cl)ccc3O2)cc1 (stereo not given),4.1%,-15.0%,0.7%,3.5%,43.9%,2.9%[9.22 µM]
Cc1cc(CNC(=O)CC2C(=O)NCCN2CC(C)(C)C)nn1C (stereo not given),-23.2%,-6.1%,.,-5.3%,23.4%[10 µM],11.0%[9.22 µM]
FC(F)(F)c1cnc(-c2cnc3c(-c4ccc(Cl)cc4)cnn3c2)c(Cl)c1,-3.6%,0.2%,0.6%,10.3%[38.3 µM],3.3%[10 µM],12.2%
CC(NC(=O)COC(=O)CCc1ccccc1)c1ccccc1 (stereo not given),9.6%,0.2%,7.3%,-6.3%,21.3%[10 µM],20.6%
Cc1c(/C=N/NC(=O)c2ccccc2O)c2ccccn2c1C(=O)c1ccc(F)cc1,-3.2%,-19.9%,1.5%,0.7%,3.5%[0.074 µM],-4.3%
COc1ccc(/C=C(/Sc2nnc(-c3ccc(Cl)cc3)o2)C(=O)O)cc1,-8.7%,2.5%,-7.0%,7.3%,-33.8%[inhibitor],-19.6%
Cc1cc(C)c(S(=O)(=O)Nc2cccc(/C=C/C(=O)O)c2)c(C)c1,2.7%,-3.1%,-1.5%,-5.6%,-13.4%[10 µM],11.6%
CCC(C)N1CCCC1C(=O)Nc1c(C)cc(C)cc1C (stereo not given),-6.5%,-4.5%,-4.3%,7.1%,19.0%[10 µM],-7.7%
COC(=O)Cc1cc(=O)n2[nH]c(C(F)(F)F)nc2n1,-6.4%,-9.3%,0.9%,-2.8%[38.3 µM],-0.5%,12.9%
COc1ccc(C(=O)NCc2ccc3c(c2)cc(C)n3C)cc1,-1.3%,-2.3%,.,2.3%,10.0%[10 µM],-2.2%[9.22 µM]
CSc1ccc(-c2nc(CN(C)C3CCOC3)c(C)o2)cc1 (stereo not given),-9.6%,12.8%,-4.0%,18.8%,-27.0%,-5.7%
O=C1Nc2c(c(=O)[nH]c(=O)n2-c2ccccc2)C1(Nc1ncccn1)C(F)(F)F (stereo not given),-3.4%,0.7%,-11.6%,-5.5%[38.3 µM],-5.0%,3.0%

# Gathered by group: the entries above with a Cl atom.
SMILES,aGlu spleen mod,GAA glycogen mod,GAA inh,IMPase Li inh,HTT ATP protect,HttQ103 aggreg
O=C(Nc1ccccc1Cl)NC1(C(=O)N2CCCCC2)CCCCC1,-9.9%,5.8%,1.9%,8.3%,2.9%[10 µM],-2.6%
COc1cc2c(cc1OC)CN(C(=O)CCCOc1ccc(Cl)cc1Cl)CC2,-1.6%,-12.2%,-14.5%,10.4%[38.3 µM],-1.1%,?
Cc1ccc(CNC(=O)C2CN(S(C)(=O)=O)c3cc(Cl)ccc3O2)cc1 (stereo not given),4.1%,-15.0%,0.7%,3.5%,43.9%,2.9%[9.22 µM]
FC(F)(F)c1cnc(-c2cnc3c(-c4ccc(Cl)cc4)cnn3c2)c(Cl)c1,-3.6%,0.2%,0.6%,10.3%[38.3 µM],3.3%[10 µM],12.2%
COc1ccc(/C=C(/Sc2nnc(-c3ccc(Cl)cc3)o2)C(=O)O)cc1,-8.7%,2.5%,-7.0%,7.3%,-33.8%[inhibitor],-19.6%

# Remaining list, next part:
SMILES,aGlu spleen mod,GAA glycogen mod,GAA inh,IMPase Li inh,HTT ATP protect,HttQ103 aggreg
CC(NC(=O)COC(=O)CSCc1ccccc1)c1ccccc1 (stereo not given),-5.8%,4.8%,4.7%,-3.0%,3.7%,24.9%
COc1ccc(OC)c(NC(=O)CSc2ncccn2)c1,-2.5%,10.0%,0.7%,14.9%[38.3 µM],10.0%,?
COc1ccc(NC(=O)c2cccnc2Nc2ccccc2)cc1,4.9%,-5.8%,-11.9%,29.2%[38.3 µM],10.0%,-25.0%
Cc1ccc(-n2c3c(c(=O)[nH]c2=O)C(NS(=O)(=O)c2ccc(C)cc2)(C(F)(F)F)C(=O)N3)cc1 (stereo not given),-19.3%,-11.2%[76.3 µM],3.3%,0.3%[38.3 µM],-16.8%,11.5%
CN(C)c1cccc(NC2=CC(=[N+]3CCOCC3)CC(C)(C)C2)c1,4.0%,?,-8.6%,64.1%[activator][38.3 µM],2.8%[10 µM],3.5%
CC(=O)c1cc(C#N)c(N2CCCCC2)nc1C,7.6%,10.4%,2.3%,-1.6%,.,5.2%
COC(=O)Oc1ccc(/C=N/NC(=O)CSCc2ccccc2Br)cc1OC,-5.2%,-5.0%,-2.5%,54.4%[activator][38.3 µM],-9.2%,?
CCSCCNC(=O)c1cc(-n2cnnc2)ccc1Cl,-7.3%,0.1%,5.3%,1.4%[38.3 µM],-1.2%[0.074 µM],5.2%
O=C(NCc1ccco1)C1(S(=O)(=O)c2ccc(Cl)cc2)CC1,0.6%,1.9%,-11.3%,8.5%[38.3 µM],-10.2%,6.8%
CC(C)(C)NC(=O)CSc1ncnc2c1nnn2Cc1ccccc1Cl,1.4%,-12.3%,-7.0%,-20.9%[38.3 µM],?,28.1%[9.22 µM]
Cc1nc2ccc(N)cc2c(=O)n1Cc1ccc(Cl)cc1,1.0%,-2.5%,14.0%,21.4%[38.3 µM],3.5%,-5.1%
Cc1nnc(SCC(=O)Nc2ccc(Cl)cn2)n1Cc1ccccc1,4.1%,3.4%,1.7%,?,-13.5%,-7.6%
COc1ccccc1NC(=O)CSc1nnc(Cc2ccccc2)o1,-3.3%,2.8%,2.2%,-6.8%[38.3 µM],-18.7%,7.7%
CCc1nc(-c2ccc(C)nc2OC)no1,-0.1%,1.8%,-2.5%,12.1%[38.3 µM],8.5%,-4.9%
CCCC(O)(CCC)C(=O)NN(C(=O)CCl)c1ccccc1,5.3%,-4.1%,-1.1%,6.7%,23.9%[10 µM],?
Brc1ccc(-c2csc(N3CCOCC3)n2)cc1,-2.5%,-5.6%,8.5%,10.3%,-61.5%[inhibitor],-13.5%
CC1CCN(C(=O)CN2C(=O)C(=O)c3ccccc32)CC1,-10.9%,-2.5%,-2.7%,-1.0%[38.3 µM],-12.7%,9.1%
O=c1c2ccccc2sn1-c1ccccc1,2.6%,1.5%,-4.4%,30.6%[38.3 µM],-56.7%[inhibitor],-33.2%
Fc1ccc(-c2cc3nc(-c4ccccc4)cc(N4CCN(CCN5CCOCC5)CC4)n3n2)cc1,-4.5%,-1.5%,-12.0%,-5.8%[38.3 µM],-96.1%[inhibitor],?
CNC(=O)Nc1ccc(C2SCCS2)cc1,4.3%,2.9%,.,.,-16.4%[10 µM],-16.4%[9.22 µM]
CC(=O)c1cc2c(cc1O)OC(C)(C)C=C2,15.0%,.,.,24.1%,-32.5%[inhibitor],.
CCOC(=O)C1=NN(c2ccccc2)C2C(=O)N(c3ccccc3OC)C(=O)C12 (stereo not given),-2.4%,-1.6%,?,.,2.7%[10 µM],-12.9%[9.22 µM]
CCC(=O)NS(=O)(=O)c1cccnc1Nc1ccccc1Cl,0.9%,6.0%,-5.6%,14.0%[38.3 µM],2.9%,-6.1%
COc1ccccc1CNC(=O)c1oc2ccc(S(=O)(=O)N3CCCC3)cc2c1C,-4.4%,-3.6%,1.6%,7.0%[38.3 µM],8.2%,19.3%
CCCCN1CCCCC1C(=O)Nc1c(C)cc(C)cc1C (stereo not given),-4.2%,-6.6%,-6.8%,17.4%[38.3 µM],11.6%,8.4%
Cc1ccc(/C=N/n2c(COc3ccccc3)n[nH]c2=S)o1,-8.2%,-10.8%,11.2%,2.1%,-33.4%,24.1%[9.22 µM]
CCc1ccc(OCc2nnc(SCC(=O)N3CCOCC3)o2)cc1,1.8%,17.4%,1.3%,2.7%,11.6%[10 µM],9.7%[9.22 µM]
CC(C)NC(=O)C(OC(=O)c1ccccc1)C(OC(=O)c1ccccc1)C(=O)O (stereo not given),0.8%,0.8%,-2.2%,-0.6%[38.3 µM],-7.9%,12.9%
O=S(=O)(Cc1ccccc1Cl)c1ncn[nH]1,0.2%,5.2%,.,.,9.5%[10 µM],-14.0%[9.22 µM]
COc1cccc(OC)c1OCCOCCn1cnc2ccccc2c1=O,-9.5%,4.8%,2.1%,1.8%[38.3 µM],-13.7%[0.074 µM],10.0%

# High-throughput results deposited in PubChem BioAssay by National Center for Advancing Translational Sciences (NCATS).
